# Screening data deposited in PubChem by several laboratories.
# Mtb bLac sens – beta-lactam sensitization of Mtb H37Rv, H37Rv. M. tuberculosis H37Rv growth with meropenem, percent inhibition; hits of this screen are not shown here. inhibition, % at 25 µM. 330,000 tested, 0.27% active. AID 434955, 2010;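 active means about 74% or more and at least 40 points above the plate without the antibiotic, then above 30% in a dose series; inconclusive means first-round hits that could not be retested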;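 further: growth measured after seven days incubation then overnight dye step; 0% = bacteria only wells and 100% = bacteria with antibiotic; twin plates without the antibiotic show which effects depend on it; some results filed as inactive read as strong as hits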
# Arbovirus anti – antivirals against arbovirus infection, primary screen, cell-based, full library, 10K replicate subset. arbovirus infection cell-based antiviral screen. inhibition, % at 10 µM. 200,000 tested, 0.37% active. AID 1251, 2008;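 active means inhibition from about 30%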;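 further: bluetongue infection of BSR cells; cell survival read as ATP light after 72 h; 0% = infected wells without compound and 100% = uninfected wells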
# Mtb H37Rv – M. tuberculosis H37Rv growth inhibitors, H37Rv strain (AID 1626); one-dose inhibition, % at 10 µM; IC50 in µM for titrated hits; M. tuberculosis H37Rv growth inhibition; higher % means a stronger effect; 220,000 tested, 0.95% active;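 active means confirmed in a dose series; inconclusive means inhibition above 80% but not taken into the dose series; inactive means below 80% or under 30% at every dose of the series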;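 further: bacteria incubated seven days before Alamar blue readout; 0% = bacteria only wells and 100% = bacteria with antibiotic wells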
# RecA splice inh – Mtb RecA intein splicing inhibitors, primary screen, biochemical, fluorescence, HTS; 290,000 tested, 0.75% active; cell-free RecA intein splicing; Protein RecA (Mycobacterium tuberculosis (strain ATCC 25618 / H37Rv)), P9WHJ3; inhibition, %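 (about 9 µM by stock and volumes)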; in the data active means inhibition above about 30%; inconclusive means no clear call, values can overlap the other calls;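 further: 0% = vehicle wells and 100% = reference inhibitor control wells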
# Target sequence (P9WHJ3 whole entry, looked up, canonical isoform): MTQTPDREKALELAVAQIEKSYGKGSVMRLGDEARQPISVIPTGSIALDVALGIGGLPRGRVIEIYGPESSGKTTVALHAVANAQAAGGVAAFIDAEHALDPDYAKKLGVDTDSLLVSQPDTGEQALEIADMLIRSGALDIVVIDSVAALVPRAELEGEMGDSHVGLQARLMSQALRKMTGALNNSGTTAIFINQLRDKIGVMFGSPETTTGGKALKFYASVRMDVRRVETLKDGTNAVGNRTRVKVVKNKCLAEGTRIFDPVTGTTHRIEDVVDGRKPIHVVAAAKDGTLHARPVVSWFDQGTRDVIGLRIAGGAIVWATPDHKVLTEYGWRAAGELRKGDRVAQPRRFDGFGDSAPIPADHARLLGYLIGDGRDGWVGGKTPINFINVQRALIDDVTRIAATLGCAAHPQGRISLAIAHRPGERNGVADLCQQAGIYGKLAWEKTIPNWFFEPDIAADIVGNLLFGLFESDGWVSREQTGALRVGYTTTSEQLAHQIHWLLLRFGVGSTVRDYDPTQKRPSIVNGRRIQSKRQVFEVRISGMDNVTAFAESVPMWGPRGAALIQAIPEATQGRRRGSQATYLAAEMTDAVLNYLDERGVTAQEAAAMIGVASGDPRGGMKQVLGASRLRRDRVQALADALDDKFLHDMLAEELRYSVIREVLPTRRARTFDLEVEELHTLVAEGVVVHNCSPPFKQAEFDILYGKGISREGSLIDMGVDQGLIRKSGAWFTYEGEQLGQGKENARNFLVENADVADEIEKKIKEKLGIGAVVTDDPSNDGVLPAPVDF
# YopH inh – YopH tyrosine phosphatase inhibitors, primary screen, biochemical, fluorescence Ex485/Em525; inhibition, %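 (about 10 µM by stock and volumes)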; 140,000 tested, 0.16% active;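 active means inhibition of 50% or more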;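 further: controls were vehicle for no effect and minimum signal wells for full effect; inactives centre near -20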
# Arbovirus anti repeat – second read-out of Arbovirus anti, no call of its own (marks repeat the call); inhibition, %; measured here: 10K subset replicate screen; many hits read low in the repeat;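 first of two repeat runs on a subset; 0% = infected and 100% = uninfected wells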
# Starred values were filed as active, the others as inactive; ? = inconclusive; . = not tested or not shown. This is a subset; rates above refer to the full screens.
SMILES,Mtb bLac sens,Arbovirus anti,Mtb H37Rv,RecA splice inh,YopH inh,others
CC(C)[C@H]1CN=C2N(C[C@H](C)NC(=O)CCC3CCCCC3)[C@H](Cc3ccc(O)cc3)CN21,-25,.,-10%,-0.6,.,
COc1cc(CC(NC(C)=O)C(=O)NC2CCN(C(=O)C3CC3)CC2)cc(OC)c1 (stereo not given),-6,1,1%,0.5,.,
Cc1cc(S(=O)(=O)N2CCc3ccccc3C2)ccc1F,3,.,.,0.6,.,
Cc1nc2ccccc2c2oc(C(=O)N3CC(C)CC(C)C3)cc12 (stereo not given),-2,.,.,-1.9,.,
CCNC(=O)C1OC(n2cnc3c(N)ncnc32)C(O)C1O (stereo not given),-17,.,-3%,-1.0,-41,
Cc1ccc(C(C)NC(=O)c2cccnc2)cc1 (stereo not given),7,.,.,-0.8,.,
COc1cccc2c1Oc1ncccc1N(C(=O)CCC(=O)NCc1ccccc1)C2,1,.,.,-3.9,.,
CCOc1ccc(NC(=O)N2CCC(n3nnc4ccccc43)CC2)cc1,5,11,51%,2.4,.,
O=C(NCc1ccccc1)N1CCC(n2cnc3cc(F)ccc32)CC1,-7,-1,-9%,-1.4,-31,
Cc1ccc(OCC(=O)N/N=C\c2ccco2)c(C)c1,-6,1,13%,0.5,-27,
COc1cc(NC(=O)N2c3ccccc3Sc3ccccc32)c(C(=O)O)cc1OC,85,.,.,-0.2,.,
CN(C(=O)CSc1nc(O)cc(=O)n1C1CCCC1)c1ccccc1,-3,.,7%,8.3,.,
CC(C)CC(=O)N1CCN(CC2CC=CCC2)CC1 (stereo not given),-35,-1,-5%,-1.1,-9,
CCC(O)c1nc2ccccc2n1CCc1ccccc1 (stereo not given),7,.,.,-0.2,.,
CCNS(=O)(=O)c1ccc(CCC(=O)NCc2ccncc2)cc1,0,.,.,-0.8,.,
CN(CCO)c1cc(NCCCN2CCC(Cc3ccccc3)CC2)c2nonc2c1[N+](=O)[O-],19,-14,3%,4.2,.,
COc1ccc(NC(=O)C2CCC(CNC(=O)[C@@H]3Cc4ccccc4CN3)CC2)cc1 (stereo not given in full),-3,.,.,0.4,.,
O=C(c1ccc(-c2ccc([N+](=O)[O-])cc2)o1)N1CCCC(C(F)(F)F)C1 (stereo not given),1,.,.,-1.3,.,
COc1ccc(N2C(=O)C3C(c4ccc(OC)cc4O)NC(Cc4ccccc4)(C(=O)O)C3C2=O)cc1 (stereo not given),-2,16,5%,-0.3,.,
CC[C@H]1OC(=O)[C@H](C)[C@@H](O[C@H]2C[C@@](C)(OC)[C@@H](O)[C@H](C)O2)[C@H](C)[C@@H](O[C@@H]2O[C@H](C)C[C@H](N(C)C)[C@H]2O)[C@](C)(OC)C[C@@H](C)C(=O)[C@H](C)[C@@H](O)[C@]1(C)O,99,8,?,-0.9,.,
CC(C)NC(=O)NC(=O)CSc1nnc(-c2ccccc2F)n1N,-5,4,3%,-2.8,.,
CC(Oc1ccccc1)C(=O)NC1CC(C)(C)NC(C)(C)C1 (stereo not given),0,3,-4%,-0.3,-20,Arbovirus anti repeat=4
COc1ccc(COc2cccc(C=O)c2)cc1,97,.,.,1.0,.,
CCCN1CCN(S(=O)(=O)c2ccc3c(c2)NC(=O)C(C)C(=O)N3)CC1 (stereo not given),-5,.,.,0.1,.,
Cc1ccc(S(=O)(=O)N2C(=O)CCC2C(=O)Nn2cnnc2)cc1 (stereo not given),-8,10,-4%,6.2,-27,
CC1(C)CC(=O)C=C(NCc2cccnc2)C1,19,8,6%,-1.0,-49,Arbovirus anti repeat=3
O=C(CSc1cn[nH]n1)Nc1cccc(C(=O)O)c1,5,.,.,-3.5,.,
O=C(O)c1ccc2c(c1)C(c1ccccc1)OC2=O (stereo not given),4,8,-14%,-2.0,-66,
O=c1[nH]c(CSc2nnnn2-c2ccccc2)nc2ccccc12,-8,-7,7%,0.5,.,
Cc1cccc(C(CC(=O)NCc2ccco2)c2ccccc2)c1O (stereo not given),2,0,9%,-2.2,.,
O=C(OCC(=O)N1CCCCCC1)c1ccc(Cl)c(S(=O)(=O)N2CCCC2)c1,-4,8,4%,-2.5,.,
Cc1nnsc1S(=O)(=O)Cc1ccccc1Cl,4,-6,3%,2.2,-23,
CCn1c(C(C#N)/C(=N\S(=O)(=O)c2cccs2)c2ccccc2)nc2ccccc21 (stereo not given),-1,6,-3%,-2.6,-14,Arbovirus anti repeat=3
Cc1cccc(NC(=O)c2c(O)c3ccccc3n(C)c2=O)c1,-2,.,.,0.0,.,
COc1cc([N+](=O)[O-])cc(/C=N/NC(=O)Cn2nc(C)cc2C)c1O,58,.,.,4.1,.,
Cc1ccc(C)c2sc(NC(=O)c3ccc(N4CCCCC4)c([N+](=O)[O-])c3)nc12,16,15,?,0.5,-25,
CC(=O)Oc1ccc(/C=N/NS(=O)(=O)c2ccccc2)cc1,59,-5,2%,-0.6,.,
CC1CN(CC(O)COC(c2ccccc2)c2ccccc2)CC(C)O1 (stereo not given),-1,-4,-2%,-0.6,-7,
O=C(CNC(=O)c1ccccn1)N=Nc1c(O)[nH]c2ccccc12,-1,.,.,-0.4,.,
COCCn1c(SCC(=O)NC(=O)NC(C)(C)C)nc2ccccc21,3,2,-2%,0.2,-4,

# 4 records drawn at random from the list so far, as already listed:
SMILES,Mtb bLac sens,Arbovirus anti,Mtb H37Rv,RecA splice inh,YopH inh,others
CC(C)CC(=O)N1CCN(CC2CC=CCC2)CC1 (stereo not given),-35,-1,-5%,-1.1,-9,
CCC(O)c1nc2ccccc2n1CCc1ccccc1 (stereo not given),7,.,.,-0.2,.,
O=C(NCc1ccccc1)N1CCC(n2cnc3cc(F)ccc32)CC1,-7,-1,-9%,-1.4,-31,
CCOc1ccc(NC(=O)N2CCC(n3nnc4ccccc43)CC2)cc1,5,11,51%,2.4,.,

# The results go on.
SMILES,Mtb bLac sens,Arbovirus anti,Mtb H37Rv,RecA splice inh,YopH inh,others
CN(C)CCn1cnc2c(c1=N)C(c1ccccc1)c1ccc3ccccc3c1O2 (stereo not given),97,.,.,5.0,.,
O=S(=O)(c1ccc(Cl)cc1)N1CCN(C(=S)NCC2CCCO2)CC1 (stereo not given),0,.,.,-1.2,.,
CCOC(=O)c1c(C)[nH]c2cc(Br)c(OC)cc12,39,6,2%,-3.6,-20,
Nc1nnn(CC(=O)N/N=C/c2ccccc2Cl)n1,-9,.,-7%,0.3,.,
Cc1ccc(C(c2nnnn2C(C)(C)C)N2CCC(C)CC2)cc1 (stereo not given),-8,-7,1%,1.2,-8,
O=C(N/N=C/c1ccco1)c1cc(-c2cccc(Br)c2)nc2ccccc12,47,-5,11%,3.5,-20,
Cc1nc(NC(=O)c2c(-c3ccccc3Cl)noc2C)sc1C,5,.,.,0.0,.,
CCSc1nnc(-c2cccnc2)n1-c1ccc(Cl)c(C)c1,2,2,-1%,0.6,-7,
COc1ccc(CCNC(=O)CC2COc3ccccc3O2)cc1OC (stereo not given),-12,1,-2%,0.8,33,
COCCCNC(=O)CSC1=Nc2ccccc2C2=NC(CC(=O)NCc3ccccc3)C(=O)N12 (stereo not given),-5,20,-5%,3.1,-29,
Cc1oc2c(C)c3oc(=O)c(CC(=O)N[C@@H](CC(C)C)C(=O)N[C@@H](Cc4ccccc4)C(=O)O)c(C)c3cc2c1C,-2,.,.,-8.4,.,
O=S(=O)(Nc1ccc(S(=O)(=O)N2CCCCCC2)cc1)c1cccs1,2,12,-9%,1.5,-3,
CCN(CC)C(=O)c1sc2nc(-c3ccc(OC)cc3)cn2c1C,-14,-8,.,0.1,-42,
COCCNC(=O)Cn1nc(C)c2ccccc2c1=O,-6,0,-7%,1.7,-35,
COc1ccc(S(=O)(=O)NCc2ccccn2)c(Cl)c1Cl,4,8,-3%,.,0,
O=C(CNC(=O)c1ccccc1)NC1(C(=O)NC2CCCCC2)CCCCC1,-3,1,3%,-0.3,.,
COc1ccc(C(=O)Nn2c(SCC(=O)N3CCC(C)CC3)nc3ccccc3c2=O)cc1,11,-7,-6%,-1.5,-2,
Cc1nc2cc(NC(=O)c3ccc([N+](=O)[O-])s3)ccc2s1,96,.,.,-3.8,.,
COc1ccc(S(=O)(=O)N(CC(=O)NCc2ccco2)c2ccccc2)cc1,-1,3,-14%,-0.2,-1,
Cc1cccc(NC(=O)CSCC(=O)N(C)Cc2c(F)cccc2Cl)c1,-13,.,.,1.7,.,

# Compounds listed so far with two or more sulfur atoms, in the order listed:
SMILES,Mtb bLac sens,Arbovirus anti,Mtb H37Rv,RecA splice inh,YopH inh,others
Cc1nnsc1S(=O)(=O)Cc1ccccc1Cl,4,-6,3%,2.2,-23,
CCn1c(C(C#N)/C(=N\S(=O)(=O)c2cccs2)c2ccccc2)nc2ccccc21 (stereo not given),-1,6,-3%,-2.6,-14,Arbovirus anti repeat=3
O=S(=O)(c1ccc(Cl)cc1)N1CCN(C(=S)NCC2CCCO2)CC1 (stereo not given),0,.,.,-1.2,.,
O=S(=O)(Nc1ccc(S(=O)(=O)N2CCCCCC2)cc1)c1cccs1,2,12,-9%,1.5,-3,
Cc1nc2cc(NC(=O)c3ccc([N+](=O)[O-])s3)ccc2s1,96,.,.,-3.8,.,

# Following part
SMILES,Mtb bLac sens,Arbovirus anti,Mtb H37Rv,RecA splice inh,YopH inh,others
CC(C)N1C(=S)SC(C)(C)C1n1oc(=O)n(-c2cccc(Cl)c2)c1=O (stereo not given),1,-3,7%,5.3,.,
NC(=S)Cc1ccccc1Cl,3,.,-8%,-1.0,.,
CCC(=O)Oc1ccc2c(c1)OC1(OC(C)=O)OC(C)CC1=C2C (stereo not given),20,.,3%,-48,.,
COCCNC(=O)c1csc(Nc2cccc3ccccc23)n1,-1,.,.,5.8,.,
Cc1cc(O)c(NC(=O)c2cccc([N+](=O)[O-])c2)cc1C,4,.,-12%,-6.3,.,
Cc1ccc(S(=O)(=O)Nc2cc(Cl)c(O)cc2C)cc1,13,-4,-8%,-8.1,-10,
CS(=O)(=O)N(CC(=O)NCc1ccncc1)C1CCCCC1,-2,-2,-1%,-1.6,.,
CC1CCC2(CC1)NC(=O)N(CC(=O)Nc1ccc(N3CCOCC3)cc1)C2=O (stereo not given),2,1,-4%,5.1,-12,
CCCCOc1ccc(C(=O)NCCc2ccccc2)cc1,28,.,.,-1.3,.,
CSc1cccc(N/C(=N/S(=O)(=O)c2ccccc2)NN)c1,1,.,.,7.2,.,
O=C(NCCCCC(NC(=O)c1ccc([N+](=O)[O-])cc1)C(=O)O)c1ccc([N+](=O)[O-])cc1 (stereo not given),-18,8,-3%,-1.4,-21,
O=C1CC(C(=O)Nc2cccc3ccccc23)C2(CCCC2)O1 (stereo not given),-2,-4,-10%,8.3,6,
O=C(CN1CCN(S(=O)(=O)/C=C/c2ccccc2)CC1)Nc1ccccc1N1CCOCC1,-7,.,-9%,3.3,.,
COc1cc(NC(=O)CSc2ccc3c(c2)OCCO3)cc(OC)c1OC,3,2,0%,-0.5,-33,
COc1ccc2cc(CN(Cc3cccnc3)S(=O)(=O)c3ccccc3)c(=O)[nH]c2c1,-10,-11,-7%,5.4,3,
Cc1c(OC(C)C(=O)NCC2CCC(C(=O)O)CC2)ccc2c3c(c(=O)oc12)CCCC3 (stereo not given),2,.,.,2.4,.,
O=C(c1cccs1)N1CCC(C(=O)N2CCN(Cc3ccc4c(c3)OCO4)CC2)CC1,-10,0,-2%,-1.2,.,
COC(=O)c1ccc(N/C=C\C(=O)c2ccc3c(c2)OCO3)cc1,8,-9,18%,-0.9,.,
COc1ccc(NS(=O)(=O)c2ccc3c(c2)NC(=O)CO3)cc1,-2,0,0%,-1.6,.,
COc1ccc(S(=O)(=O)N2CCN(Cc3ccccc3)CC2)c(C)c1,0,.,.,5.9,.,
COc1ccc(C(=O)NNC2=NS(=O)(=O)c3ccccc32)cc1OC,-7,.,.,0.1,.,
O=C(Nc1ccccc1)NC1(C(=O)N2CCN(c3ncccn3)CC2)CCCCC1,-8,-6,-1%,2.2,-46,
FC(F)Oc1ccc(NC(=S)NC2CCCCCCC2)cc1,96,.,.,2.5,.,
CC(=O)Nc1ccc(S(=O)(=O)Nc2nc3ccccc3nc2Nc2ccc(O)c(C(=O)O)c2)cc1,-1,.,.,-2.2,.,
CCCCC(=O)Nc1nn(CC(C)C)c2nc3ccccc3cc12,-1,5,4%,-21,-7,
COc1ccc(CCNC(=O)c2cccnc2)cc1,-3,4,-1%,1.1,-12,
CN(CC(=O)NCCCc1ccccc1)Cc1ccc(Br)cc1,2,.,.,5.3,.,
Cc1ccc(NP(=O)(c2ccccc2)c2nc3ccccc3s2)cc1 (stereo not given),2,17,1%,2.0,.,
CCN1CCc2nc(N)sc2C1,5,-4,-3%,1.1,.,
